# Cruzain inh noDet = inhibitors of Trypanosoma cruzi cruzain without detergent; P25779; purified cruzain, Z-FR-AMC fluorescence, no detergent; Potency, µM, inactives show max response, negative = inhibition, most hits filed as inhibitors; 200,000 tested, 2.3% active; AID 1476; active means well fitted curve in the direction sought with a large enough effect; inconclusive means small, poorly fitted or top-dose-only effect, or another doubt; inactive means no such curve, though single readings can be large; an effect the other way counts as inactive or inconclusive;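 further: plate controls were enzyme without inhibitor for no effect and buffer without enzyme for full effect; nearly all actives have a fitted effect of over 40% in size; top concentration of the series not given in the record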
# Target sequence (P25779 123-467 limits assumed): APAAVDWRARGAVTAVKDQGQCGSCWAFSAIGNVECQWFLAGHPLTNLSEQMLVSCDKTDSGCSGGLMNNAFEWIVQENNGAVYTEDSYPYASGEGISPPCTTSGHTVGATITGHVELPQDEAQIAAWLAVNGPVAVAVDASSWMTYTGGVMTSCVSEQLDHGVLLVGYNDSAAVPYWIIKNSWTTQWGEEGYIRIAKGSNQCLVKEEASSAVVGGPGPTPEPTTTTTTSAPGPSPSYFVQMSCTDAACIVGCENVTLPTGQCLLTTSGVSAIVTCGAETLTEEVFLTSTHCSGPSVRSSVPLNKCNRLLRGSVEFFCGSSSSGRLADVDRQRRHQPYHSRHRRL
#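 Purified cruzain at 1.5 nM, pre-incubated 15 min with compound at room temperature in 100 mM sodium acetate pH 5.5, 5 mM DTT, 0.00005% Triton X-100. Reaction started with 2 uM Z-FR-AMC; AMC fluorescence increase over 60 s gives rate.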
# SARS PLpro yeast = blocks SARS-CoV papain-like protease in a yeast assay; S. cerevisiae expressing SARS-CoV PLpro, growth rescue; control for the full effect not named in the record; Potency, µM (series often up to 32.9 µM), inactives show at the highest dose activity, positive = growth rescue; 330,000 tested, 0.19% active; AID 485353; further: 0% is about no effect; nearly all actives have a fitted effect of over 55% in size; growth read by luminescence after 48 h
# 2A StopGo = lowers the luciferase signal of an FMDV 2A StopGo reporter; 410,000 tested, 1.2% active; Potency, µM (doses to about 57.9 µM), for the others: at the highest dose signal change, negative = less light; AID 1159524; human cells with a luciferase reporter of 2A StopGo recoding; control for the full effect not named in the record; active = well fitted falling curve with a large enough effect; inconclusive = small, poorly fitted or top-dose-only effect; inactive = no such curve, though single readings can be large or run the other way; tested in HEK293T cells; further: on the % scale 0 is the no-effect control and ±100 the full control effect; nearly all actives have a fitted effect of over 45% in size; luciferase light after 4 h
# MARV entry inh = Marburg virus entry inhibition | Marburg virus pseudotyped entry inhibition, cell reporter; control for the full effect not named in the record; about a third of the inactives were read at about 46 µM | Potency, µM (doses to about 37.8 µM), for the others: at the top dose activity change, negative = inhibition, most hits filed as inhibitors | 300,000 tested, 1.8% active; active = well fitted inhibition curve with a large enough effect; inconclusive = small, poorly fitted or top-dose-only effect, or effect the other way; inactive = flat fitted curve, though single readings scatter; tested in HEK293 cells; about a fifth of its hits are not listed in these tables; further: on the % scale 0 is the no-effect control and ±100 the full control effect; luciferase read-out
# Cruzain Triton = blocks cruzain activity in presence of Triton detergent | purified cruzain, Z-FR-AMC fluorescence, 0.01% Triton | 200,000 tested, 0.43% active | P25779 | Potency, µM, without a hit: max response, negative = inhibition, most hits filed as inhibitors; active means well fitted curve in the direction sought with a large enough effect; inconclusive means small, poorly fitted or top-dose-only effect, or another doubt; inactive means no such curve, though single readings can be large; an effect the other way counts as inactive or inconclusive;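 further: plate controls were neutral wells for no effect and buffer without enzyme for full effect; nearly all actives have a fitted effect of over 40% in size; top concentration of the series not given in the record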
#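 Read-out: AMC fluorescence (360 nm excitation, 450 nm emission), four reads over 2 min, first-to-third difference used. Conditions: cruzain 1.5 nM, Z-FR-AMC 2 uM, pH 5.5 acetate, 5 mM DTT, 0.01% Triton X-100.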
# LASV entry inh = Lassa virus entry inhibition | 300,000 tested, 1.2% active | Potency, µM (titrated, usually from 37.9 µM), inactives show top-dose activity change, negative = inhibition, most hits filed as inhibitors | Lassa virus pseudotype entry inhibition, cell reporter; control for the full effect not named in the record; active means well fitted inhibition curve with a large enough effect; inconclusive means small, poorly fitted or top-dose-only effect, or effect the other way; inactive means flat fitted curve, though single readings scatter; tested in HEK293 cells; further: on the % scale 0 is the no-effect control and ±100 the full control effect; nearly all actives have a fitted effect of over 50% in size; luciferase read-out
# RE007 growth inh = less growth of the S. pombe RE007 Vpr strain; Potency, µM (top dose mostly 92.2 µM), for inactives: at the highest dose activity change, negative = less growth; AID 651644; 360,000 tested, 0.21% active; S. pombe RE007 Vpr strain, BacTiter-Glo ATP luminescence, 24 h; control for the full effect not named in the record; active = well fitted falling curve with a large enough effect; inconclusive = small, poorly fitted or top-dose-only effect; inactive = no such curve, though single readings can be large or run the other way;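 further: on the % scale 0 is the no-effect control and ±100 the full control effect; nearly all actives have a fitted effect of over 50% in size; the assay follows cell death caused by Vpr and the record does not say whether a fall means rescue or toxicity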
#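 Fission yeast strain RE007, carrying one chromosomally integrated HIV-1 vpr copy, was seeded at OD 0.01 in PMG+AL medium with 23 nL pinned compound. After 24 h at 30 °C and 99% humidity, viability was read by BacTiter-Glo luminescence.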
# NS1 inh = blocks influenza NS1 protein function; S. cerevisiae slowed by influenza A NS1, growth recovery by OD600; Potency, µM (doses to about 46.1 µM), inactives show top-dose activity, positive = more growth; 270,000 tested, 0.4% active; further: actives are rising curves; nearly all actives have a fitted effect of over 50% in size
#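 Recovery from NS1-induced slow growth read by OD600 in budding yeast switched to galactose assay medium (pH 6.0, -URA) at 1:100 dilution. Compound 23 nl per well; the matching strain lacking NS1 serves as control.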
# * = called active by the depositor; ? = inconclusive; . = no result given; [ ] = dose if it differs, or a comment. Unless noted, the call rests on the fitted dose curve; in most records, active means well fitted rising curve with a large enough effect; inconclusive means small, poorly fitted or top-dose-only effect; inactive means no such curve, though single readings can be large or run the other way. Potency means the concentration at half of the fitted maximal effect.
structure	Cruzain inh noDet	SARS PLpro yeast	2A StopGo	MARV entry inh	Cruzain Triton	LASV entry inh	RE007 growth inh	NS1 inh
Cc1ccc(C)c(S(=O)(=O)N2CCC3(CC2)OCCN3S(=O)(=O)c2cccs2)c1	.	-1%	0%	-11%[46.1 µM]	.	-25%	3%	.
CCOC(=O)C(/C(C)=N/NC(=O)C1CC1c1ccccc1)C(C)C (configuration not stated)	2%	-4%	?	25%	-2.4%	2.1µM*	-16%	7%
Cc1cc(C)cc(NC(=O)c2ccc(S(=O)(=O)C(F)F)cc2)c1	-5%	-19%	2%	1%	-5.7%	9%	1%	-11%
CCOC(=O)c1sc2nc3c(cc2c1N)C(=O)CC(C)(C)C3	3%	-7%	22%	11%	-2.7%	-3%	-5%	4%
O=C(COC(=O)COc1ccccc1[N+](=O)[O-])NC1CCCC1	4%	10%	3%	24%	-2.7%	2%	-18%	-44%
CNC(=O)C1CCC(Cn2c(=O)c3sccc3n(CC(=O)NCc3ccc(OC)cc3)c2=O)CC1 (configuration not stated)	-3%	.	-3%	.	0.0%	16%[46.1 µM]	.	.
CCNc1nc(NCC)nc(-n2nc(C)cc2C)n1	12%	-2%	.	8%	1.1%	-4%	13%	-17%
OCCN(Cc1ccccc1)CC1CCCCC1	4%	.	-18%	17%	1.4%	?	-7%	-3%
NP(=O)(OCC(F)(F)F)Oc1ccccc1 (configuration not stated)	.	.	36%[activator]	11%	.	20%	-1%	.
CCN(C(=O)CSc1nnc(-c2ccccc2Cl)n1C1CCCC1)C1CCS(=O)(=O)C1 (configuration not stated)	26%	-3%	21%	?	1.8%	11%	5%	-10%
COc1ccc(Cn2c(C(=O)O)c(CNCCc3ccco3)c3ccc(C)cc32)cc1	26%	.	-5%	.	-5.2%	-20%[46.1 µM]	.	.
Nc1nnnn1/N=C/c1ccc(Br)cc1	.	-3%	1%	-6%	.	13%	-18%	7%
Cc1cccc(C)c1OCC(O)CNC(C)C (configuration not stated)	9%	0%	6%	8%	-2.1%	17%	17%	8%
Nc1cccc2c1C(=O)N(C(=O)c1cccc(S(=O)(=O)N3CCCCCC3)c1)C2=O	-1%	-10%	1%	0%	-4.8%	18%	24%	1%
CCOc1ccc2nc(C)cc(C(=O)O)c2c1	-1%	-15%	.	20%	1.9%	0%	14%	1%
N#Cc1nc(-c2ccccc2F)oc1NCCc1ccccn1	-14%	-8%	21%	14%	-0.5%	29%	2%	-10%
COC(=O)CSc1nc2sc3c(c2c(=O)n1C1CCCCC1)CCN(C)C3	-10%	3%	.	.	-14%	.	.	17%
Cc1ccc(C)c(S(=O)(=O)N2CCCC2CNC(=O)C(=O)NCC2CCCO2)c1 (configuration not stated)	.	2%	-16%	13%[46.1 µM]	.	5%	-4%	.
CC(Oc1ccccc1F)C(=O)NNC(=O)CCS(=O)(=O)c1ccccc1Cl (configuration not stated)	.	-3%	-5%	17%	.	-2%	7%	.
Cc1ccc(-n2c(C)cc(/C=C3\NC(=O)NC3=O)c2C)c(C)c1	-15%	-4%	13%	-14%	-13%	?	10%	-2%
O=C(C1CC1)N1N=C(c2ccncc2)CC1(O)C(F)(F)F (configuration not stated)	.	0%	-8%	1%[46.1 µM]	.	24%[46.1 µM]	-1%	2%
CCN(CC)CCSc1nnc2c3cc(F)ccc3n(Cc3ccccc3)c2n1	.	4%	-3%	-1%[46.1 µM]	.	?	-10%	1%
O=C(NCc1cccnc1)Nc1cccc(NC(=O)NCc2cccnc2)c1	1%	2%	18%	2%	0.3%	-1%	-21%	-3%
COc1ccc(S(=O)(=O)NC(C)CCc2ccccc2)cc1 (configuration not stated)	.	0%	12%	9%[46.1 µM]	.	-3%	14%	-32%
Cc1ccccc1/C(N)=N/OC(=O)/C=C/c1ccccc1	1%	-6%	41%[activator]	8%	-6.9%	12%	1%	-161%
CC(C)Oc1ccc(CNC(=O)C2CCN(Cc3cc4ccccc4n3Cc3ccccc3)CC2)cc1	17%	.	-14%	.	-5.4%	-26%[46.1 µM]	.	.
CCc1nn(C(C)C(=O)N2CCN(Cc3ccccc3)CC2)c(=O)c2cc3occc3n12 (configuration not stated)	-5%	-11%	-22%	-23%	5.5%	0%	-2%	6%
Cc1ccc(S(=O)(=O)N2CCN(CCNC(=O)C(=O)Nc3ccc(F)cc3)CC2)cc1	.	1%	3%	?	.	1%	19%	2%
Cc1cc(NC(=O)CSc2nnc(-c3ccccc3C)n2C)no1	.	0%	-4%	16%	.	8%	-10%	.
O=c1c2ccccc2nc2n1CCN2Cc1ccc(Cl)cc1	-1%	-14%	.	?	0.1%	-18%	17%	-31%
CC(NS(C)(=O)=O)C(c1cccs1)N1CCN(Cc2ccccc2)CC1 (configuration not stated)	8%	16%	-10%	.	-1.7%	.	-1%	-5%
c1ccc(CCNC2CCCCCC2)cc1	.	2%	-3%	.	.	.	-12%	3%
O=C(N/N=C1\CCCc2c1[nH]c1ccc(Cl)cc21)c1ccncc1	?	2%	?	1%	0.3%	.	?	2%
CN(CC(=O)NCCc1ccccc1)S(=O)(=O)c1ccc(Br)s1	.	1%	-7%	.	.	0%	-3%	-13%
C[C@H](NC(=O)C1CCN(S(=O)(=O)c2ccccc2)CC1)C(=O)NCc1cccc(Cl)c1	.	-11%	-9%	-8%[46.1 µM]	.	1%[46.1 µM]	-1%	6%
O=C(c1ccccc1NS(=O)(=O)c1ccccc1[N+](=O)[O-])N1CCOCC1	-8%	24%	-5%	-4%	6.6%	13%	49%	23%
CCN(CC)C(=O)c1sc2c(c1C)c(=O)n(-c1ccc(C)c(C)c1)c(=O)n2Cc1cc(=O)n2c(C)cccc2n1	-4%	.	?	.	1.0%	11%[46.1 µM]	.	.
COc1ccc(C(=O)NCCCc2ccccc2)cc1OC	.	0%	14%	10%[46.1 µM]	.	?	12%	-12%
Cc1ccc(-c2nc(N)n(C(=O)c3cccnc3)n2)cc1	-2%	0%	41%[activator]	2%	-0.4%	10%	15%	-4%
COc1ccc2c(c1)CCc1c(C(=O)Nc3c(C)n(C)n(-c4ccccc4)c3=O)noc1-2	-10%	-3%	-7%	-5%	-9.7%	18%	-15%	5%
C=CCn1c(SCC(=O)Nc2ccc(C(=O)OCC)cc2)nnc1-c1sc(N)nc1C	18%	1%	-4%	-14%	-2.0%	13%	10%	-20%
COCc1cc(=O)n2c(-c3ccccc3OC)n[nH]c2n1	-7%	0%	4%	2%	-0.8%	9%	8%	-2%
O=C(Nc1ccc(Cl)c(Cl)c1)NC1CCS(=O)(=O)C1 (configuration not stated)	.	0%	18%	7%[46.1 µM]	.	.	9%	4%
CNc1cc(CSC)nc(SCc2ccc(Cl)c(Cl)c2)n1	8%	-3%	.	-15%	-5.0%	-21%	1%	-4%
Cc1cc(=O)oc2c(CN3CCCCC3)c(O)ccc12	.	.	-15%	10%	.	13%	2%	.
Cc1cccc(CN2C(=O)c3ccccc3S(=O)(=O)c3ccc(C(=O)N4CCN(c5cc(C)ccc5C)CC4)cc32)c1	-17%	.	-13%	-11%[46.1 µM]	1.2%	8%[46.1 µM]	.	.
COCCCNC(=O)COc1ccc(Cl)c(C)c1	11%	-1%	43%[activator]	?	2.5%	9%	13%	-11%
O=C1C2N=NN(CC(=O)N3N=C(c4cccc5ccccc45)CC3c3ccccc3)C2C(=O)N1c1ccccc1 (configuration not stated)	5µM*	-20%	-5%	?	-5.4%	-6%	0%	?
COc1ccc(NC(=O)C(c2ccccc2)c2ccccc2)c(OC)c1	.	.	-26%	-27%	.	?	5%	.
CCOC(=O)c1c(C)[nH]c(C(=O)COC(=O)CNC(=O)c2ccc(Br)cc2)c1C	2%	-2%	4%	?	-27%	2%	-11%	2%
CC(=O)C(Cl)C(=O)Nc1ccccc1 (configuration not stated)	.	-10%	-16%	?	.	5%[46.1 µM]	9%	-33%
O=C(c1ccco1)N1CCN=C1SCc1cccnc1	-9%	-7%	-9%	-19%[46.1 µM]	4.7%	-18%	?	?
CCC(=O)Nc1cc2c(cc1C(C)=O)OCCO2	17%	-1%	1%	14%	-1.1%	-3%	-5%	-2%
Fc1ccc2nc(N3CCCC3)sc2c1	.	2%	0%	8%[46.1 µM]	.	.	-25%	.
COc1cccc(CCNC(=O)CCc2nnc(-c3cc(C)oc3C)o2)c1	.	-3%	-1%	-2%[46.1 µM]	.	25%[46.1 µM]	0%	1%
CC1CN(C=O)CC(C)N1CCN1C(C)CN(C=O)CC1C (configuration not stated)	.	.	-14%	17%	.	?	3%	.

# Further compounds follow.
structure	Cruzain inh noDet	SARS PLpro yeast	2A StopGo	MARV entry inh	Cruzain Triton	LASV entry inh	RE007 growth inh	NS1 inh
CCOc1ccc(C(=O)COC(C)=O)cc1	-7%	-15%	-3%	?	2.0%	0%	-11%	7%
O=C(Nc1nc2ccc(Cl)cc2s1)c1ccco1	?	-15%	-20%	?	-3.2%	11µM*	-19%	-66%
COC(=O)Cc1nnc(NC(=O)C(C)C)s1	8%	-3%	-12%	-1%	0.5%	6%	10%[3.69 µM]	7%
O=C(CN1CCOCC1)N/N=C/c1cc2ccccc2nc1Cl	-6%	0%	-10%	-4%	-6.4%	-1%	-4%	22%
CCOc1c(OC)cccc1C(=O)NCC1(c2ccccc2)CCCC1	.	-1%	?	.	.	.	-10%	-12%
O=C(NCC1CCCO1)c1ccc(CNS(=O)(=O)c2cccc(Cl)c2)cc1 (configuration not stated)	.	1%	-15%	9%[46.1 µM]	.	-10%	-5%	-3%
Cc1oc(-c2cccc(Cl)c2)nc1CSc1nnc(C)n2c1cc1occc12	-10%	.	-1%	.	0.6%	14%[46.1 µM]	.	.
CSc1nnnn1-c1ccc(C(=O)OCC(=O)N2CCOCC2)cc1	-5%	8%	22%	0%	4.8%	-16%	2%	-7%

# Screening data from PubChem.

# An unsorted share of the library (roughly 4.5% active in at least one column).
